HPGD block – inhibitors of human 15-hydroxyprostaglandin dehydrogenase (HPGD); P15428; purified HPGD, NADH fluorescence kinetic, PGE2 substrate; Potency, µM, for the others: at the highest dose activity change, negative = inhibition, usual class: inhibitors; 150,000 compounds, 4.3% hits; AID 894; active = well fitted inhibition curve with a large enough effect (not every such curve was filed as active); inconclusive = small, poorly fitted or top-dose-only effect, or another doubt; inactive = no such curve, though single readings can be large or run the other way;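 further: top concentration of the series not given in the record; plate controls included wells without enzyme; inactives centre near -10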
Target sequence (P15428 whole entry, looked up): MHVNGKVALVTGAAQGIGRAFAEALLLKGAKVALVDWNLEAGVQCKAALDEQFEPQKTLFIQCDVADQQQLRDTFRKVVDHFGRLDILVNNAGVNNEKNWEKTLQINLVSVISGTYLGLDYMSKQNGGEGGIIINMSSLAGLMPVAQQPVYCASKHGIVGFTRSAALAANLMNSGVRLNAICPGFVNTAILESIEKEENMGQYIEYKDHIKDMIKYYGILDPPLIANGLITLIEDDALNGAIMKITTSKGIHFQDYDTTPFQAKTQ
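NADH formation kinetics: reaction with 30 uM PGE2 and 1 mM NAD+ (final), 20 nM enzyme, Tris-HCl pH 8 with Tween 20, after 15 min compound preincubation at room temperature. Fluorescence change, last versus first of five reads.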
Starred values were filed as active, the others as inactive; u = inconclusive. On the % scale 0 is the no-effect control and ±100 the full control effect; potency means the concentration at half of the fitted maximal effect. This is a subset; count on the stated rates, not on these rows.

HPGD block,SMILES
17.8µM*,Cc1ccc(OCCCN2C(=O)C(=O)c3cccc(C)c32)cc1
u,CC(=O)c1ccccc1OCCn1nnc(-c2ccc(C)cc2)n1
-2.6%,CCCCOc1ccccc1C(=O)NCCCC(=O)O
17.8µM*,O=C(CC1CCCCC1)NC1CCCC1
-28.7%,O=c1nc2s/c(=C\c3ccco3)c(=O)n2nc1Cc1ccc(F)cc1
-16.3%,CCOC(=O)c1c(C)c(C(=O)NCc2ccc3c(c2)OCO3)c(C)n1CC
-11.4%,O=C(CN1CCN(Cc2ccccc2)CC1)Nc1cccc(C(F)(F)F)c1
-27.6%,N#Cc1ccc(-c2csc(NC(=O)/C=C/c3cccs3)n2)cc1
-21.3%,CCCCOc1ccc(C(=O)N/C(=C\c2cccc([N+](=O)[O-])c2)C(=O)OCCC)cc1
-11.6%,Cc1cc(NC(=O)c2cnn3c(C(F)(F)F)cc(-c4ccc(Br)cc4)nc23)no1
-3.4%,COc1ccc(S(=O)(=O)N2CCC(C(=O)NC3CC3)CC2)cc1Cl
-16.5%,CC[N+]1=CN(c2ccccc2)C(C)=CC1(C)C
-5.4%,Cc1csc2nc(CCNS(=O)(=O)c3cccs3)cn12
-12.2%,O=S(=O)(c1ccc(Br)cc1)n1c(Cc2ccccc2)nc2ccccc21
-18.4%,Cn1nc(C(F)(F)F)c2cc(C(=O)Nc3ccc(F)cc3F)sc21
-6.9%,CCOC(=O)c1cccc(NC(=O)C2(S(=O)(=O)c3ccc(Cl)cc3)CC2)c1
-1.2%,Cc1ccccc1N(Cc1ccccc1F)S(C)(=O)=O
-14.6%,CSc1ncccc1C(=O)OCC(=O)Nc1cc(C(F)(F)F)ccc1N1CCOCC1
u,CC(C)OC(=O)c1cc2c(ccn2C)n1CC(=O)N(Cc1ccccc1)c1ccc(F)cc1
-23.0%,O=C(Oc1cccc(NC(=O)c2ccco2)c1)c1cccc(S(=O)(=O)N2CCCCC2)c1
-8.7%,COc1ccc(-c2nn(-c3ccccc3)cc2C(=O)N2CCOCC2)cc1
u,Cc1ccc(S(=O)(=O)C(C#N)c2nc3ccccc3nc2N2CCCC2)cc1 (centres undefined)
-9.1%,CCOC(=O)C1=NNC2(c3ccc(C)cc3)C(=O)N(c3ccc(Cl)cc3)C(=O)C12 (centres undefined)
-4.3%,C=CCn1c(COc2ccccc2F)nnc1SCC(=O)N1CC(=O)Nc2ccccc21
-13.5%,CCCc1cc(C(=O)NCCc2ccc(OC)c(OC)c2)no1
-3.7%,O=C(COC(=O)Cc1cn2ccsc2n1)Nc1nc2ccccc2s1
-9.5%,COc1ccc(NC(=O)N2CCCC3(CCNCC3)C2)cc1
u,O=C(c1cc2nc(-c3ccco3)cc(C(F)(F)F)n2n1)N1CCCc2ccccc21
-6.1%,CN(C)C(CNC(=O)CSc1nnc(-c2ccco2)o1)c1ccccc1 (centres undefined)
u,CCn1c(CCn2c3ccccc3c3ccccc32)n[nH]c1=S
-10.1%,O=S(=O)(Nc1ccccc1Cl)c1ccc(F)cc1
-27.1%,Cc1cccc(/C=N/c2sc3c(c2C#N)CCN(Cc2ccccc2)C3)c1O

As entered above:
In HPGD block, O=S(=O)(Nc1ccccc1Cl)c1ccc(F)cc1 reads -10.1%
In HPGD block, Cn1nc(C(F)(F)F)c2cc(C(=O)Nc3ccc(F)cc3F)sc21 reads -18.4%
In HPGD block, CCOC(=O)c1c(C)c(C(=O)NCc2ccc3c(c2)OCO3)c(C)n1CC reads -16.3%
In HPGD block, Cc1ccccc1N(Cc1ccccc1F)S(C)(=O)=O reads -1.2%
In HPGD block, Cc1csc2nc(CCNS(=O)(=O)c3cccs3)cn12 reads -5.4%

New compounds follow.
HPGD block,SMILES
-0.9%,Cc1cc(C)cc(NC(=O)C/C(N)=N/O)c1
-8.4%,CS/C(=N\NC(N)=O)c1ccccc1
-27.6%,O=C(OCc1nnc(-c2ccccc2)o1)c1cn(-c2ccccc2)nc1-c1ccccc1
-12.2%,CCOc1ccccc1C(=O)Nc1nnc(C(C)C)s1
-12.0%,C=CCn1c(SCc2cc(=O)n3ccsc3n2)nc2sc(C)c(C)c2c1=O
-12.3%,O=C(N/C(=C/c1cn(-c2ccccc2)nc1-c1ccccc1)C(=O)N1CCOCC1)c1ccc(Cl)cc1Cl
-18.1%,O=c1c2ccccc2nc(SCc2cccc(F)c2)n1Cc1ccco1
u,O=C(O)c1c[nH]c2cc(C(F)(F)F)ccc2c1=O
-16.9%,O=S(=O)(/N=C(/Nc1cc(N2CCOCC2)ncn1)c1ccccc1)c1ccccc1
3.6%,CC(C)Sc1nc2ccccc2n1CC(=O)NCc1ccc2c(c1)OCO2
25.1µM*,CC(=O)N1CCC(=NNC(=O)CSc2cc(C)c(Br)cc2C)CC1
-13.6%,Cc1nn(-c2ccc(Cl)cc2)c(N)c1C(O)(CSc1nccn1C)C(F)(F)F (centres undefined)
-8.3%,CCOC(=O)Cn1nc(C)n(-c2ccc(C)cc2)c1=O
-13.0%,Cc1cccc2cc(CN(CCN3CCCC3)C(=O)NC3CCCCC3)c(=O)[nH]c12
-1.5%,CC(NC(=O)Nc1ccc2c(c1)OCO2)C1CCCO1 (centres undefined)
-12.6%,Cc1ncc(CSc2nc3ccccc3[nH]2)c(N)n1
-21.8%,Cc1ccc(-c2nnc(CSc3nnc(COc4ccccc4)n3-c3ccccc3)o2)cc1
5.4%,CCN1CCN(CCCCOc2ccccc2F)CC1
-3.1%,CN(C)c1ccc(NC(=O)c2sc(SCC(=O)Nc3nccs3)nc2N)cc1
-14.4%,CCCCc1nc(SCC(=O)Nc2ncccn2)n[nH]1
-9.9%,Cc1cc(C)nc(Nc2n[nH]c(Cc3ccccc3)n2)n1
-7.8%,CCCCC1CCC(C(=O)Nc2ccc(S(=O)(=O)Nc3nccs3)cc2)CC1 (centres undefined)
-18.6%,Cc1ccn2c(C(=O)N/N=C\c3cccs3)c(C)nc2c1
6.5%,O=C(NCCN1CCCCCC1)C1CC(=O)N(CCc2ccccc2)C1 (centres undefined)
-0.7%,COc1ccc(OCC(=O)NN2Cc3ccccc3C2=N)cc1
-5.0%,S=C(Nc1ccc(Cl)cc1)N(CCCN1CCOCC1)Cc1ccco1
-0.5%,O=C(CNC(=O)C1COc2ccccc2O1)N/N=C\c1cccc(O)c1 (centres undefined)
-1.3%,Cc1ccc(S(=O)(=O)N2CCC(C(=O)OCC(=O)N3CCc4ccccc43)CC2)cc1
-7.2%,Cn1c(=O)c2c(SCc3c(F)cccc3Cl)nc(CC(C)(C)C)nc2n(C)c1=O
-4.6%,COCCNC(=O)CSc1nc2cc(OC)c(OC)cc2c(=O)n1CCC1=CCCCC1
-6.6%,CC1CCc2sc(C(=O)N=Nc3c(O)[nH]c4ccccc34)cc2C1 (centres undefined)
-21.8%,CC(=O)Nc1ccc(Br)cc1C(=O)C(=O)O
-1.6%,O=C(CN1CCN(c2ccc(F)cc2)CC1)Nc1ccc(F)c(F)c1
-6.5%,O=S(=O)(Nc1nc(-c2sccc2Cl)cs1)c1cc(Cl)ccc1Cl
-7.2%,CC1(C)Cc2ccccc2-c2nc3ccccc3c(=O)n21
-4.3%,O=C(CC1C(=O)NCCN1C(=O)Nc1ccccc1)Nc1ccc2c(c1)OCO2 (centres undefined)
-7.9%,Cn1c(=O)c2[nH]c(CCCCc3nc4ccccc4[nH]3)nc2n(C)c1=O
-17.0%,COc1ccc2c(c1)CC/C(=C\c1ccc(OC)c(Cn3nc(C)cc3C)c1)C2=O
-6.2%,BrCCOCCOc1ccc2ccccc2c1
-7.1%,O=C(O)c1nnsc1-c1csnn1
-6.3%,O=C(CNC(=O)c1ccccc1Cl)N/N=C/C=C/c1ccccc1
u,COc1ccccc1/C=N/NC(=O)c1nnn(-c2nonc2N)c1CSC1=NCCS1
u,O=C(NCC1CC1)c1ccc(Nc2nc3ccc(Br)cc3[nH]2)cc1
-8.6%,O=C(NC1CCCC1)C1CCC(=O)N1C1CCCC1 (centres undefined)
-1.2%,O=C(Nc1cc(C(F)(F)F)ccc1N1CCOCC1)c1cccnc1Cl
-11.8%,OC(CNCc1ccccc1)Cn1ccc2ccccc21 (centres undefined)
-18.7%,O=C1c2ccccc2C(=O)N1CCCc1c[nH]c2ccccc12
-0.1%,CCOC(=O)N1CCC(Nc2nc(OC)nc(OC)n2)CC1

Nothing new here: two of the compounds above.
HPGD block,SMILES
-18.7%,O=C1c2ccccc2C(=O)N1CCCc1c[nH]c2ccccc12
-0.1%,CCOC(=O)N1CCC(Nc2nc(OC)nc(OC)n2)CC1

More results follow.
HPGD block,SMILES
-9.6%,CCSc1nnc(NC(=O)c2cnccn2)s1
-7.9%,CC1(C)CC2(CCO1)CNC(=O)O2 (centres undefined)
-0.3%,CCCCCCCCCC(=O)OCC(CO)OC(=O)CCCCCCCCC (centres undefined)
-2.7%,COc1cc(OC)c(C2N(c3ccc(Cl)cc3)C(=O)C3CCCN32)cc1OC (centres undefined)
-10.6%,COC(=O)CNC(=O)CSc1nnc(C)c(=O)[nH]1
-9.6%,Cc1ccc(C)c(NC(=O)CCc2ccc(S(=O)(=O)NC3CCCCC3)cc2)c1
-9.2%,O=C(/C=N/O)Nc1ccccc1
0.0%,COC(=O)C1CCN(C(c2ccc(OC)c(OC)c2)c2sc3nc(C)nn3c2O)CC1 (centres undefined)
-16.7%,O=C1c2[nH]nc(-c3ccccc3O)c2C(c2ccc(F)cc2)N1Cc1ccco1 (centres undefined)
-16.8%,Cc1cccc2cccnc12
-11.6%,O=C(/C(=C/c1ccccc1Cl)c1ccccc1)N1CCOCC1
-13.8%,CCOc1ccc(S(=O)(=O)N(C)c2ccc(OCC(=O)Nc3nc4ccccc4s3)cc2)cc1
-10.2%,CC1CCCC(NC(=O)CN2CCN(Cc3ccc(Cl)cc3)C2=O)C1C (centres undefined)
-3.0%,CCCCCN=c1ccn(Cc2ccccc2)c2ccccc12
-6.4%,CCn1c(SCC(=O)N2CCCc3ccccc32)nc2cccnc21
-5.3%,CCCc1nnc(NC(=O)CCC(=O)Nc2ccc(F)cc2)s1
-20.4%,Cc1sc2ncnc(NCC3(N4CCOCC4)CCCCC3)c2c1C
u,CCOC(=O)N1CCC(NC(=O)c2ccc3c(c2)N(Cc2ccc(F)cc2)CCS3)CC1
-18.6%,CC(=O)c1ccc(OC(=O)N(c2ccccc2)c2ccccc2)cc1
-11.8%,COc1cc(C)cc2c(-c3c(O)cc(O)c4c3C[C@H](C)N[C@@H]4C)cc(-c3cc(-c4c(O)cc(O)c5c4C[C@H](C)N[C@@H]5C)c4cc(C)cc(OC)c4c3O)c(O)c12
-10.2%,O=C(C1CCCO1)N1CCN(C(=S)Nc2ccc(Cl)cc2Cl)CC1 (centres undefined)
25.1µM*,c1ccc(-c2nnc(CSc3nncs3)o2)cc1
-6.4%,Cc1nccn1CCCN1C(=O)OC2(CCCCC2)C1(C)O (centres undefined)
u,CC1=CC(C)(C)Nc2ccc(C)cc21
-12.6%,CCc1ccc2c(CC(=O)Nc3nnc(C4CC4)s3)coc2c1
-3.5%,Cc1cccc(N(CC(=O)Nc2ccc(CC#N)cc2)S(C)(=O)=O)c1
u,Cc1cc(NS(=O)(=O)c2ccc(NC(=S)NC(=O)c3ccc(F)cc3Cl)cc2)no1
-9.9%,CCC(C)NS(=O)(=O)c1ccc(OCC(=O)Nc2ccc3c(c2)OCCO3)cc1 (centres undefined)
-11.8%,Cn1c(CN2CCCCC2)nc2cc(NC(=O)c3cccc(Br)c3)ccc21
-15.5%,Cc1ccc(C)c([N+](=O)[O-])c1
-7.3%,CCCCc1nc2ccccc2c(=O)n1NC(=O)c1c(O)c2cccc3c2n(c1=O)CCC3
-6.9%,CCOC(=O)CNS(=O)(=O)c1ccc(C(=O)O)cc1
5.4%,COc1cc(NC(=O)N[C@H](C(=O)O)C(C)C)cc(OC)c1
-0.7%,CCOC(=O)C(=O)Nc1ccccc1C(N)=O
-7.8%,CCOC(=O)N1CCC(N2Cc3cccc(C(=O)NCc4ccc(OC)cc4)c3C2=O)CC1
u,COc1ccccc1NC(=O)C1=C(C)N(c2ccccc2)C(=S)NC1c1cccc(C(F)(F)F)c1 (centres undefined)
-6.0%,CCCC/S(CC1CC1(Cl)Cl)=N\S(=O)(=O)c1ccc(C)cc1 (centres undefined)
-7.9%,Cc1csc(=O)n1CC(=O)OCc1cccc2ccccc12
-8.5%,Cc1ccc(CC(=O)OCCNC(=O)c2cccnc2)cc1
u,CCC(C)(C)C1CCc2c(sc(NC(=O)c3ccoc3C)c2C(N)=O)C1 (centres undefined)
-1.5%,CCN1C(=O)c2cccc3c(NC(=O)c4ccc5c(c4)OCCO5)ccc1c23
-11.3%,Cc1ccc(C(=O)NCCc2nnc3ccc(SCC(=O)Nc4ccc(C)cc4C)nn23)cc1
-23.9%,O=C(CCCSc1nc2ccccc2s1)NCc1ccc2c(c1)OCO2
-11.7%,Cc1ccc(NC(=O)C2CCCN(S(=O)(=O)c3c(C)noc3C)C2)cc1F (centres undefined)
-2.4%,CC(C)(C)c1cc(OC(=O)c2ccncc2)ccc1O
-11.3%,CCSc1nc(N2CCCCC2)c2c(c1C#N)CCCC2
3.6%,CSc1ncccc1C(=O)OCC(=O)N1CCOCC1
25.1µM*,COc1ccccc1CNC(=O)CC(C)C
-13.2%,COC(=O)c1cccc(C(=O)Oc2cccc(Br)c2)n1
-3.8%,CCCOc1ccc(N2CC(C(=O)Nc3ncccc3C)CC2=O)cc1 (centres undefined)
u,C=N[C@H](C(=O)N[C@@H]1C(=O)N2[C@@H]1SC(C)(C)[C@@H]2C(=O)O)c1ccccc1

Exported as a markdown table: entries from further up.
| SMILES | HPGD block |
| --- | --- |
| Cc1ccc(NC(=O)C2CCCN(S(=O)(=O)c3c(C)noc3C)C2)cc1F (centres undefined) | -11.7% |
| CC(C)(C)c1cc(OC(=O)c2ccncc2)ccc1O | -2.4% |
| CCSc1nc(N2CCCCC2)c2c(c1C#N)CCCC2 | -11.3% |
| CSc1ncccc1C(=O)OCC(=O)N1CCOCC1 | 3.6% |
| COc1ccccc1CNC(=O)CC(C)C | 25.1µM* |
